Screening results as filed in PubChem BioAssay.
BJeLR viability = kills HRASV12-expressing BJeLR cells; inhibition, % (no concentration beside the values); BJeLR (HRASV12) viability, CellTiter-Glo ATP luminescence, 48 h; reference of the scale not given here; 0.17% of 300,000 active;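 active = replicate mean above 50%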;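 note: 50 nL library stock added to about 25 µL; numbers are from one replicate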
Autofluor counter = flagged as autofluorescent in microsphere protease counterscreen. compound autofluorescence counterscreen, microsphere flow cytometry; hits give high values. fluorescence intensity (concentration not given with the values). 3.1% of 360,000 active. AID 624483;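 active = at least 3 SD above the mean of all compounds, about 16000 in these data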;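 note: 100 nL of 1 mM stock went into each well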
PrP UTR inh = inhibition of PrP 5' UTR reporter expression. cell-based PrP 5' UTR mRNA reporter, plate reader. AID 488862. inhibition, % (concentration not given with the values). 0.35% of 340,000 active;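 active = every replicate at 50% or more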;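 note: 0 = median of the neutral control wells; tested in H4 reporter cells; numbers are from one replicate; inactives centre near -14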
Sa RN4220 lethal = S. aureus RN4220 growth inhibition. OD600, 16 h. inhibition, % (no concentration beside the values). 0.33% of 330,000 active;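 active = z-score of -3 or lower and OD600 up to 0.18 on both plates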;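 note: plate controls were untreated cells for no effect and reference antibiotic for full effect; stock transfer was 100 nL into about 80 µL; one replicate is shown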
ugtP null kill = compounds lethal to S. aureus RN4220 ugtP deletion mutant; OD600 growth, 16 h; some inactives read as strong as hits; growth inhibition, % (concentration not given with the values); AID 1259309; 0.54% of 330,000 active;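 active = z-score under -3 and OD600 up to 0.15 on both plates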;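 note: plate controls were untreated wells for no effect and antibiotic for full effect; wells of about 80 µL received 100 nL stock; the first replicate is given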
Mtb hypoxia rep = reduces hypoxia-regulated biosensor signal in M. tuberculosis; M. tuberculosis hypoxia-regulated fluorescent reporter, fluorescence; fluorescence inhibition, % (no concentration beside the values); 0.1% of 300,000 active; AID 1159583;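 active = 35 to 45% if threefold the growth effect, above 45% if 1.5-fold the growth effect; inactive = the rest, general growth blockers included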;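 note: wells of about 50 µL received 100 nL stock; 0% = vehicle wells and 100% = reference inhibitor wells; whole bacteria with a GFP reporter of the hypoxia response; strong numbers were not always called active; many hits fall short of the cut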
Mtb hypoxia rep growth = recorded beside Mtb hypoxia rep, whose call it bears; growth inhibition, %; measured here: M. tuberculosis growth (absorbance);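 0% = vehicle and 100% = reference antibiotic; read after six days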
The depositor's hits bear a star; . = not tested or not shown.

#	canonical_smiles	BJeLR viability	Autofluor counter	PrP UTR inh	Sa RN4220 lethal
1	COCCCNC(=S)NCCCNc1nc2cc3c(cc2cc1C#N)OCO3	-9	5914	14	5.8
2	Cc1nc(-c2ccccc2)sc1-c1nc(-c2ccccc2)ncc1S(=O)(=O)c1ccccc1	2	3654	0	-0.4
3	CCCCOc1ccc(NC(=O)C2OC3OC(C)(C)OC3C3OC(C)(C)OC23)cc1 (stereo not drawn)	-6	2499	-13	-0.1
4	Cc1cc(=O)n(C)c(=O)n1CC(=O)N1CCCCCC1	-9	4356	-9	0.5
5	COc1ccc(C(=O)CCN2CCCC(C)C2)cc1 (stereo not drawn)	10	3813	-12	-1.5
6	O=C(CCCC(=O)NCc1ccc(F)cc1)NCc1ccc(F)cc1	2	4446	-24	8.2
7	CN(c1ccc(OCC(=O)OCc2nnc(-c3ccccc3)o2)cc1)S(=O)(=O)c1ccc(Cl)cc1	3	5185	-16	7.0
8	Cc1ccc(-c2nnc3ccc(SCC(=O)N4CCc5ccccc54)nn23)cc1	3	4521	-9	0.4
9	COc1cccc(C(=O)N2CCC(O)(c3cccnc3)CC2)c1	-3	2761	-16	2.9
10	CCOC(=O)c1cnc(N2CCN(c3ccccc3)CC2)[nH]c1=O	17	3018	-10	3.9
11	CCCCCc1c(C)nc(N2CCc3ccccc3C2)[nH]c1=O	-10	10025	.	3.3
12	O=C(C1CCN(c2nc(-c3ccccc3)nc3c2CCC3)CC1)N1CCCC1	2	5528	-12	1.4

#	ugtP null kill	Mtb hypoxia rep	Mtb hypoxia rep growth
1	-7	-5	9
2	6	.	.
3	-5	-4	5
4	3	9	9
5	-3	12	-4
6	0	3	3
7	0	-1	4
8	9	7	-7
9	2	12	12
10	4	8	4
11	-1	1	-4
12	11	7	10

More structures
#	canonical_smiles	BJeLR viability	Autofluor counter	PrP UTR inh	Sa RN4220 lethal
13	COc1cc(NC(=O)c2sc3ncn(CC(=O)N4CCC(C)CC4)c(=O)c3c2C)cc(OC)c1OC	-2	5603	-3	-0.7
14	C=CCNC(=O)[C@H]1N2C(=O)c3ccccc3C2SC1(C)C (stereo partly drawn)	-7	3678	-17	4.1
15	O=C(Nc1cnn(Cc2ccc(Cl)cc2)c1)c1ccc([N+](=O)[O-])cc1	5	4562	-18	-4.0
16	COc1ccc(OC)c(-n2nnnc2SCC(=O)Nc2nc(C)c(C)s2)c1	-2	7148	-30	4.9
17	Cc1ccc2nc(N/C(=N/S(=O)(=O)c3ccc(F)cc3F)c3ccccc3)sc2c1	2	4268	-21	.
18	CCc1cc(C(=O)OC)c(NC(=O)CC2Nc3cc(C)c(C)cc3NC2=O)s1 (stereo not drawn)	12	9492	-19	2.0
19	COCCNC(=O)Cn1ccc2cc(S(=O)(=O)N3CCCCCC3)ccc21	5	4785	-11	0.9
20	O=C(CSc1nc2ccccc2c(=O)n1-c1ccc(F)cc1)Nc1ccc(Cl)c(S(=O)(=O)N2CCOCC2)c1	-3	2257	-1	3.6
21	COc1ccc2c(C)cc(SCC(=O)Nc3c(C)n(C)n(-c4ccccc4)c3=O)nc2c1	-4	3140	-4	-6.3
22	COc1ccc(C=NNC(=O)Cc2csc(Nc3cccc(C(F)(F)F)c3)n2)c(OC)c1	.	.	.	-11
23	Cc1ccc(S(=O)(=O)NCC(=O)N2CCOCCOCCOCC2)cc1	2	3780	-24	-0.8
24	CN(C(=O)COC(=O)COc1ccccc1F)C1CCS(=O)(=O)C1 (stereo not drawn)	-6	5902	-20	3.4

#	ugtP null kill	Mtb hypoxia rep	Mtb hypoxia rep growth
13	-1	-7	9
14	9	2	-4
15	-5	.	.
16	7	6	10
17	.	.	.
18	8	4	5
19	-1	-3	1
20	-1	7	2
21	-3	15	11
22	-12	4	10
23	-2	-7	-3
24	2	4	1

Going on with the list.
#	canonical_smiles	BJeLR viability	Autofluor counter	PrP UTR inh	Sa RN4220 lethal
25	CCN(CC)CCCNC(=O)c1c(O)c2cc(F)cc3c2n(c1=O)C(C)CC3 (stereo not drawn)	-2	4486	-22	-1.3
26	O=C(O)c1cc(Oc2ccc(C(F)(F)F)cc2Cl)ccc1[N+](=O)[O-]	-4	5793	-12	.
27	O=C(O)c1cc(-c2ccc(Cl)c(Cl)c2)n(-c2ccc(F)cc2)n1	-9	3632	4	2.1
28	O=C(Cn1nnc(-c2ccccc2)n1)OC1CCOC1=O (stereo not drawn)	3	3472	-6	1.9
29	COc1cccc(CN2CC(C(=O)NCCSc3nnnn3C)CCC2=O)c1 (stereo not drawn)	-1	5949	-13	-1.3
30	O=C(NNC1=NCCCCC1)c1cccc([N+](=O)[O-])c1	13	2094	1	1.7
31	C#CCNC(=O)C1=C[C@@H](c2coc3ccccc3c2=O)[C@H](CCCO)[C@@H](OCC)O1	0	4188	-9	.
32	O=C(NCc1ccccn1)Nc1cccc(NC(=O)NCc2ccccn2)c1	-1	22604*	-19	-3.8
33	CC(NC(=O)C1CCC(=O)N1Cc1ccc(F)cc1)c1ccc2c(c1)OCCO2 (stereo not drawn)	9	4390	-6	1.6
34	Cc1cccc2nc(CSc3nnc4ccccn34)cn12	4	9005	-39	-2.1
35	COC(=O)c1cc(OC)c(OC)cc1NC(=S)N1CCCC1	4	3487	-2	.
36	COc1nc(OC)nc(N2CCC(C(=O)NCc3ccco3)CC2)n1	3	19494*	-33	1.6

#	ugtP null kill	Mtb hypoxia rep	Mtb hypoxia rep growth
25	11	17	13
26	.	.	.
27	-3	0	8
28	3	.	.
29	-1	-4	0
30	0	7	3
31	.	.	.
32	-5	-4	-3
33	2	0	-5
34	-8	4	9
35	.	.	.
36	0	6	13

Additional structures:
#	canonical_smiles	BJeLR viability	Autofluor counter	PrP UTR inh	Sa RN4220 lethal
37	O=C(O)CCc1nc(-c2ccccc2Cl)no1	1	3151	-23	2.7
38	O=C1CCCc2ccccc2N1	3	2710	-10	2.9
39	Nc1cc(=O)[nH]c(SCC(=O)Nc2cc([N+](=O)[O-])ccc2Cl)n1	0	4640	-22	3.6
40	CCCC1(C(=O)OC)NC(c2ccc(OC)c(OC)c2)C2C(=O)N(c3ccc4c(c3)OCO4)C(=O)C21 (stereo not drawn)	0	6722	-15	2.8
41	CC1COc2ccccc2N1C(=O)c1ccc(F)cc1 (stereo not drawn)	-14	3824	-18	2.0
42	O=C(/C=C/c1cccc([N+](=O)[O-])c1)N1CC[C@@]2(O)CCCC[C@H]2C1	-4	3873	-28	4.3
43	O=C(/C=C/c1ccc([N+](=O)[O-])cc1)OCc1cnc(-c2ccccc2)o1	-7	4493	-20	3.5
44	O=C(COC(=O)CCSc1ccccc1)NCc1ccccc1Cl	0	2121	-20	2.7
45	Cc1cccc(NC2CCCCC2NS(=O)(=O)c2ccccc2)c1 (stereo not drawn)	-11	4897	-14	5.4
46	COc1cccc(CNC(=O)c2ccccc2-c2ccccc2C(=O)O)c1	9	2863	-19	-0.2
47	CN(CCc1ccccc1)C(=O)c1ccc(NC(=O)Cc2cccc(NC(=O)C3CCN(C(=O)CCc4ccccc4)CC3)c2)cc1	.	3062	-10	5.8
48	COc1ccc(S(=O)(=O)N2CCOCC2)c2ccccc12	-6	4092	-17	4.3

#	ugtP null kill	Mtb hypoxia rep	Mtb hypoxia rep growth
37	6	6	11
38	6	14	-2
39	3	-4	11
40	13	8	3
41	0	-12	-7
42	0	-2	3
43	7	-4	5
44	5	1	-5
45	3	4	-5
46	8	25	13
47	5	-2	2
48	9	3	3

Remaining list, next part.
#	canonical_smiles	BJeLR viability	Autofluor counter	PrP UTR inh	Sa RN4220 lethal
49	Cc1ccc(-c2nc3cc(NC(=O)C(C)C)ccc3o2)cc1	9	2796	-94	5.1
50	Cc1ccc(S(=O)(=O)N[C@H](C(=O)OCC(=O)NC(=O)c2cccn2C)C(C)C)cc1	.	3243	-6	3.1
51	CCC1([N+](=O)[O-])COC(c2ccc(Cl)cc2)OC1 (stereo not drawn)	.	4226	-12	4.0
52	Cc1ccc(Sc2cc(C(=O)c3ccccc3C(=O)O)ccc2[N+](=O)[O-])cc1	0	3179	.	6.6
53	O=C(Nc1ccccc1Cl)C1CC(=O)n2c(nc3ccccc32)N1 (stereo not drawn)	-6	.	.	0.4
54	COc1ccc(C2=NN(S(C)(=O)=O)C(c3cccs3)C2)cc1 (stereo not drawn)	2	3280	-36	-4.0
55	COc1ccc(C(=O)NNS(=O)(=O)c2ccccc2)cc1OC	-8	3889	-28	3.5
56	CN(C)CCn1c(=O)n(-c2ccc(F)cc2)c(=O)c2c3c(sc21)CCCCC3	-3	5012	-11	-1.1
57	O=c1cc(COc2ncnc3c(Cl)cc(Cl)cc23)nc2sccn12	9	6354	-3	4.6
58	O=C1Nc2cc(C(=O)NCCN3CCCCCC3)ccc2S/C1=C\c1ccccc1	16	6893	-8	1.1
59	COc1cc(OC)cc(-c2cc3ccc(F)cc3cn2)c1	.	2953	-51	15
60	O=C(NCCc1nnc2ccc(SCC(=O)N3CCCC3)nn12)c1ccccc1	2	5313	-11	1.5

#	ugtP null kill	Mtb hypoxia rep	Mtb hypoxia rep growth
49	-8	.	.
50	0	5	-2
51	-2	3	3
52	0	3	4
53	1	3	-1
54	-10	-1	-2
55	8	-5	-3
56	7	2	4
57	-7	-1	-9
58	-11	13	13
59	-7	-3	0
60	3	-9	-3

(next part)
#	canonical_smiles	BJeLR viability	Autofluor counter	PrP UTR inh	Sa RN4220 lethal
61	Cc1ccc(O)c(NC(=O)C2=CC(c3cccs3)=NS(=O)(=O)N2C)c1	2	5342	-12	0.4
62	CN(CC(=O)Nc1ccc(F)cc1)C(=O)Cc1ccsc1	.	6046	-22	3.6
63	COc1ccccc1C(=O)NC(=O)COC(=O)Cn1[nH]c(=O)c2ccccc2c1=O	-12	6324	-24	5.3
64	O=C(NCCc1cccs1)C1CC(c2c(Cl)cccc2Cl)=NO1 (stereo not drawn)	9	3944	-23	5.6
65	CN1CCN(c2ccc([N+](=O)[O-])cc2NC(=O)c2ccccc2Cl)CC1	3	8168	-4	2.6

#	ugtP null kill	Mtb hypoxia rep	Mtb hypoxia rep growth
61	-4	-7	6
62	2	3	0
63	-1	1	-2
64	-4	13	9
65	1	0	5
